Bioassay records: PubChem BioAssay, National Center for Advancing Translational Sciences (NCATS)
NPR1 antag: antagonists of human natriuretic peptide receptor Npr1; HEK293 hNpr1 GloSensor cGMP, ANP-stimulated luminescence; Potency, µM (series often up to 46.3 µM), inactives show at the top dose activity change, negative = inhibition, hits mostly inhibitors; 76,000 compounds, 1.6% hits; AID 1347048; active = well fitted inhibition curve with a large enough effect; inconclusive = small, poorly fitted or top-dose-only effect; inactive = no such curve, though single readings can be large or run the other way;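 further: nearly all actives have a fitted effect of over 60% in size; nearly all hits also lower the signal before the agonist is added; a reference antagonist and vehicle were the controls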
Target sequence (P16066 whole entry, looked up): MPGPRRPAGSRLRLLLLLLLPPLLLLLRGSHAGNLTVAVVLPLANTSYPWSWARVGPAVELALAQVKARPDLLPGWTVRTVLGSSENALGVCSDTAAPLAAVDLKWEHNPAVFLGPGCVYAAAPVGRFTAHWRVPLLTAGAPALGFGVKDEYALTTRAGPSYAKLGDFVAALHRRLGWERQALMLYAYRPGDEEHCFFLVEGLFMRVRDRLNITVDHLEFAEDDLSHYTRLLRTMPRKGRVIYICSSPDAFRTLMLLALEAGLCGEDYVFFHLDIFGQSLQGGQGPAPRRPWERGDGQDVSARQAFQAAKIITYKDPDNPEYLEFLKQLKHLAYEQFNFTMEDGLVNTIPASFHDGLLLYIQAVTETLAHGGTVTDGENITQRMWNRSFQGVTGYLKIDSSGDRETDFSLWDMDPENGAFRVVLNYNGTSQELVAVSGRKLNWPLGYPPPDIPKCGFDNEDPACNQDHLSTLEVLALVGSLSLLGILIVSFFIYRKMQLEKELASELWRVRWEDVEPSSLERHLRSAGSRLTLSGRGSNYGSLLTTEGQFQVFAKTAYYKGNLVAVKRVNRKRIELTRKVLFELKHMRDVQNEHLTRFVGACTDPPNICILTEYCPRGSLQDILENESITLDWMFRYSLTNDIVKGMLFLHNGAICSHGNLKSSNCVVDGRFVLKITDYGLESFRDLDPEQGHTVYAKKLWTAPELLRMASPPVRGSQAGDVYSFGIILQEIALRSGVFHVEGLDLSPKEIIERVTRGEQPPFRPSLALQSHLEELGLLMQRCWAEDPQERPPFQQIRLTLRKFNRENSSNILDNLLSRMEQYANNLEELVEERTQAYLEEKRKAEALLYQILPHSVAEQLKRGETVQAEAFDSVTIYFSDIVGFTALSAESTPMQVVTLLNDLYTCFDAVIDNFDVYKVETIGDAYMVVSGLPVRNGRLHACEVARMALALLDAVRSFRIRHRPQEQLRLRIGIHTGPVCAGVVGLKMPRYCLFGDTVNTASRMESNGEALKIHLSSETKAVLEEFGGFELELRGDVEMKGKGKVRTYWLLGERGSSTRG
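Compound pre-incubated 30 min at room temperature on GloSensor-loaded HEK293 cells stably carrying hNpr1 and the pGS-40F cGMP biosensor. Stimulation uses hNppA at 0.1 nM final; luminescence is taken at baseline and 20 min post-agonist.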
* hit, by the source's call; ? = inconclusive; [ ] = remark or other dose. On the % scale 0 is the no-effect control and ±100 the full control effect; potency means the concentration at half of the fitted maximal effect.

SMILES | NPR1 antag
CC(C)c1nc(CNC(=O)c2ccc(N(C)C)nc2)no1 | 5.1%
CC(=O)N[C@H]1CC[C@]2(C)CC[C@@H]([C@H](C)C(=O)NCc3cccs3)[C@H](O)[C@H]2[C@@H]1C | 3.7%[70.6 µM]
CC(=O)Nc1cccc(-c2ccc(COc3ccc4c(cnn4CCC(=O)O)c3)cc2)c1 | -13.3%[70.6 µM]
Cc1ccc2nc(C3CCCN(Cc4cccc(-c5cccs5)c4)C3)[nH]c(=O)c2c1 (centres undefined) | ?
CC(=O)N1CCC([C@@H]2CN(Cc3ccc(C(F)(F)F)cc3)C[C@H]2CO)CC1 | 0.6%
CCC(=O)N(C1CCOCC1)C1CCN(Cc2cc(F)cc(F)c2)CC1 | -4.9%
CC1CCCCN1Cc1nnc2cc(-c3nc(-c4ccccc4)no3)ccn12 (centres undefined) | 4.1%
FC(F)(F)c1cccc(C2=NOC3(CCN(Cc4ccncc4)CC3)C2)c1 | -21.3%
COc1ccc(-c2ncc3c(n2)OCCN(c2ccccc2)C3=O)cc1F | 15.8µM*
O=C(CCn1ccn2nc3c(c2c1=O)CCCC3)N1CCSCC1 | -0.8%
CCc1noc(-c2cn(C3CCN(C(=O)c4ccc(OC(F)(F)F)cc4)C3)nn2)n1 (centres undefined) | 0.0%
CCn1ncc(CN2CCCN(S(C)(=O)=O)C(c3ccccc3)CC(=O)NCC2)c1C (centres undefined) | -2.7%
O=c1cc(-c2cccnc2)oc2c(-c3ccc(O)c(F)c3)nccc12 | 3.9%[70.6 µM]
Cc1ccc2[nH]c(CN3CCC(c4cccc(C#N)c4)CC3)cc(=O)c2c1 | ?
Cc1[nH]nc(CCC(=O)N2CC[C@H](N3CCOCC3)[C@H](CCC(=O)O)C2)c1C | 2.0%
CCCNC(=O)CCC1CCN(C(=O)c2ccccc2F)CC1 | -6.8%
Cc1c(-c2ccccc2)[nH]c2c(CNC(=O)CCc3nncn3C)cc(Cl)cc12 | -0.8%
O=C(NC1CC1)c1ccccc1OCC1CCCN(CC2=Cc3ccccc3OC2)C1 (centres undefined) | ?
NC(=O)Cc1c[nH]c2ncc(-c3ccccc3F)cc12 | -12.6%[70.6 µM]
COC(=O)[C@@H]1Cc2c([nH]c3ccccc23)[C@@H]2C[C@@H](NCCNC(C)=O)C[C@@H](c3ccc(F)c(F)c3)N12 | 5.1%
COCCC1(NC(=O)C2CCOCC2)CCN(C(=O)C(C)c2ccccc2)CC1 (centres undefined) | 3.3%
Cc1ccc(NC(=O)NCC2CCOCC2)cc1C | 4.7%
Cc1nc(C(=O)N2CCC(c3[nH]ncc3-c3ccccc3C)CC2)cs1 | -2.2%
Cc1ccc(CNC(=O)c2ccc3c(c2)CN(Cc2ccc(N(C)C)cc2)CCO3)cc1 | 11.2µM*
CN1[C@@H](CCC(=O)N2CCc3ccccc32)CNC(=O)[C@@H]2[C@H]1CCN2Cc1ccc(S(C)(=O)=O)cc1 | 2.8%

Random excerpt: 2 compounds from above
SMILES | NPR1 antag
NC(=O)Cc1c[nH]c2ncc(-c3ccccc3F)cc12 | -12.6%[70.6 µM]
Cc1c(-c2ccccc2)[nH]c2c(CNC(=O)CCc3nncn3C)cc(Cl)cc12 | -0.8%

Taken from above:
CC(C)c1nc(CNC(=O)c2ccc(N(C)C)nc2)no1 in NPR1 antag: 5.1%
NC(=O)Cc1c[nH]c2ncc(-c3ccccc3F)cc12 in NPR1 antag: -12.6%[70.6 µM]
COCCC1(NC(=O)C2CCOCC2)CCN(C(=O)C(C)c2ccccc2)CC1 (centres undefined) in NPR1 antag: 3.3%
COC(=O)[C@@H]1Cc2c([nH]c3ccccc23)[C@@H]2C[C@@H](NCCNC(C)=O)C[C@@H](c3ccc(F)c(F)c3)N12 in NPR1 antag: 5.1%
CCn1ncc(CN2CCCN(S(C)(=O)=O)C(c3ccccc3)CC(=O)NCC2)c1C (centres undefined) in NPR1 antag: -2.7%
Cc1ccc(NC(=O)NCC2CCOCC2)cc1C in NPR1 antag: 4.7%

Going on with the list.
SMILES | NPR1 antag
COCC1CN(C)CC12CCN(C(=O)c1ccc(OC(F)(F)F)cc1)CC2 (centres undefined) | -4.6%
CC1=C(C(=O)OC(C)(C)C)C(c2ccc(Cl)cc2)N2C(CC(=O)N3CCOCC3)=CSC2=N1 (centres undefined) | ?
COCCNC(=O)[C@H]1C[C@H](Oc2ccccc2)CN1C(=O)c1cccc(OC)c1 | -4.4%
CC(C)c1noc(-c2cn(C3CCN(C(=O)Cc4ccc(Cl)cc4)C3)nn2)n1 (centres undefined) | 2.6%
CCOC(=O)C1CCCN(C(=O)c2ccc3nccn3c2)C1 (centres undefined) | 17.8%[70.6 µM]
CN(C)CCN(C)[C@H]1[C@@H]2OC[C@@H](O2)[C@@H](NCc2ccc(OC(F)(F)F)cc2)[C@@H]1O | 6.7%[70.6 µM]
COc1ccccc1OC1CCN(Cc2cc3n(n2)CCNC3)CC1 | 1.8%
O=C(NCC1CCCO1)C1CCN(c2cc(C(F)(F)F)ncn2)CC1 (centres undefined) | -20.1%
NC1CCCCN(C(=O)c2scc3c2CCCC3)C1 (centres undefined) | -1.0%
C[C@@H](c1ccccc1)N1C(=O)[C@@H]2CN(C(=O)c3ccc4c(c3)OCO4)CCN2C1=O | 0.8%[70.6 µM]
COCCO[C@H]1C(=O)N(C2CCN(C(=O)c3cccn3C)CC2)[C@H]1c1ccncc1 | 5.1%
Cc1cccc2[nH]c(C3CCN(C(=O)C4CC5(CCNCC5)CN4)CC3)nc12 (centres undefined) | 5.4%
NC(=O)CCNC(=O)C1=C[C@@H](NC(=O)Nc2ccccc2Br)[C@@H](O)[C@H](O)C1 | -2.9%
CN1CCN(c2nc3c(c(=O)[nH]2)CCN(Cc2ccc(Cl)cc2F)CC3)CC1 | 2.2%
C[C@@]1(O)CCN(C(=O)CCc2ccc(-c3cccs3)o2)C[C@@H]1O | 0.3%
COc1ccc2[nH]cc(CCNC(=O)C[C@H]3NC(=O)c4ccccc4NC3=O)c2c1 | 4.5%
Cc1cnc(-c2cccnc2)n1C1CCCN(C(=O)c2cccn2C)C1 (centres undefined) | -4.7%
Cc1ccccc1-c1nc(N2CCOCC2)cc2c1CN(CC1CC1)C2=O | -1.4%[70.6 µM]
COc1ccc(-n2nc(C3CCCN(C(C)=O)C3)[nH]c2=O)cc1 (centres undefined) | -4.4%[70.6 µM]
COc1ccc(C(=O)N2CCC3(CC2)CC(c2cccc(C(F)(F)F)c2)=NO3)cc1 | 11.2µM*
CCc1noc(-c2cccn3c(CNC(=O)c4cc(F)ccc4F)nnc23)n1 | -9.5%
COc1ccccc1CCC(=O)N1C[C@@H](C(N)=O)[C@H](c2nc(C)no2)C1 | -7.0%
COc1cccc(C(=O)N2CCC(N3C[C@H](O)C[C@H]3C(=O)NCc3cccc(C)c3)CC2)c1 | -1.4%
COc1ccc(-c2noc([C@@H]3CCCN3C(=O)Cc3ccc(C)cc3)n2)cc1 | -23.6%
CC1(C(=O)NCCN2CCOCC2)CCc2cnc(NCc3ccccc3)nc21 (centres undefined) | -1.8%[70.6 µM]
New compounds follow
SMILES | NPR1 antag
Cc1ccncc1C(=O)N1CCCC(c2nnnn2C)C1 (centres undefined) | 4.8%
O=C(NC1CCCC1)C1c2ccccc2C(=O)N(Cc2ccccc2)C12CCCC2 (centres undefined) | -12.2%
O=C(NCc1ccc(F)cc1)N1CC(Oc2ccc(-c3noc(-c4ccccc4)n3)cc2)C1 | 14.1µM*
CN1c2cc(C(=O)NCc3ccccc3Cl)ccc2C(=O)N2CCCC21 (centres undefined) | 14.5%
O=S(=O)(c1ccccc1)N1CCC(n2cnnc2-c2ccccc2)CC1 | -8.7%
O=C(Cc1ccccc1F)N1CCOc2ccc(CN3CCc4ccccc4C3)cc2C1 | -29.0%
Cn1nc(C(=O)N2CCOc3ccc(CCC(N)=O)cc3C2)c2ccccc21 | 3.3%
O=C(CC1Cc2ccccc2C1)N[C@H]1CCOC[C@H]1C1CCOCC1 | 2.9%
O=C(c1cccc(F)c1)N1CCC(n2cc(-c3nc(-c4ccccc4)no3)nn2)CC1 | ?
Cc1ccccc1CN1CCc2ncc(C(=O)Nc3ccccc3)n2CC1 | -2.0%[70.6 µM]
CC1CCN(C(=O)CCC[C@H]2NC[C@@H]3C[C@H]2CN(Cc2ccccc2)C3)CC1 | 0.2%
COCCN1C(=O)CCc2cc(NC(=O)c3c(F)cccc3F)ccc21 | 4.5%
O=C(c1ccc(-c2ccco2)cc1)N1CCOc2ccc(CN3CCN(c4ccccn4)CC3)cc2C1 | -6.3%
O=C(C[C@@H]1CCNC[C@@H]1Cc1cc(CC2CCCCC2)on1)NC1CCCCC1 | -0.3%[70.6 µM]
COc1ccc(N2Cc3c(ncnc3N3CCCN(C(C)=O)CC3)N(C)CC2=O)cc1 | 0.0%
CC(C)CCC(=O)N1C[C@@H]2CCCN3CCC[C@@H]([C@H]23)[C@H]1CCCC(=O)N1CCOCC1 | -1.3%
Cc1cccc(CN(C)CC2CCCN(CCc3cccc(C(F)(F)F)c3)C2)n1 (centres undefined) | -9.4%
O=C(c1ccccc1F)N1CCC2(CC1)CC(N(Cc1ccc(F)cc1)C1CC1)CCO2 (centres undefined) | -25.3%
O=C(c1ccccc1)N1CCCN(c2cc(-c3ccccc3)[nH]n2)CC1 | -1.1%
CCc1nnc([C@@H]2CC(F)(F)CN2Cc2cccn2C)o1 | 2.1%
Cc1ccc(C2Cn3nnc(C(=O)Nc4ccc(Br)cc4)c3CO2)cc1 (centres undefined) | -16.1%
COc1cccc(CN2CCC3(CC2)CC(O)CCO3)c1OC (centres undefined) | -9.1%
O=C(c1ccc(Cl)cc1)N1CCC(n2cc(-c3nc(-c4ccccc4)no3)nn2)CC1 | 15.8µM*
Cn1cc(C2CCN(C(=O)c3sc(Cl)c(Cl)c3Cl)CC2)c2ccccc21 | -0.1%
COCCO[C@H]1C(=O)N(C2CCN(C(=O)Nc3ccccc3F)CC2)[C@H]1c1ccncc1 | -4.1%
(continued)
SMILES | NPR1 antag
CCn1cc(CN2C[C@@H]3C(=O)N(CCCN4CCCC4=O)C(=O)[C@@H]3C2)cn1 | -0.9%
CCN1CCCC1CNC(=O)CCC1CCN(Cc2cn(CC)c3ccccc23)CC1 (centres undefined) | -12.9%
CCOc1ccc2ccccc2c1C(C(=O)O)N1CCN(CC2CC2)CC1 (centres undefined) | 2.8%
O=C(C1CC=CC1)N1C[C@@H](COc2cccnc2)[C@H](c2ccccn2)C1 | -0.9%
CCC1(N2CCN(S(=O)(=O)c3ccc(F)c(C)c3)CC2)CCN(C(=O)NC)C1 (centres undefined) | -3.4%
Cc1ccc(C2NC(=O)N(CC(=O)Nc3ccc(C(F)(F)F)cc3)C3=C2C(=O)OC3)cc1 (centres undefined) | ?
COc1ccc(NC(=O)Cn2c(-c3ccc(F)cc3)nc(C)c(CCO)c2=O)cc1Cl | -21.6%
CC(=O)NC1(C)CCN(Cc2cccc(-c3ccc4c(ccn4C)c3)c2)C1 (centres undefined) | ?
CC(C)N1C[C@H](O)C[C@H]1c1nnc2n1CCN(C(=O)c1cccc3nccnc13)CC2 | -0.6%
C[S+](=O)([O-])c1cccc(-c2ncc3c(n2)OCCN(CC2CC2)C3=O)c1 | -1.6%[70.6 µM]
CC(=O)N(C1CC1)C1CCOC2(CCN(C(=O)Cn3c(=O)oc4ccccc43)CC2)C1 (centres undefined) | -9.6%
O=C(NC1CCCN(c2cc(-c3ccc(F)cc3)[nH]n2)C1)c1ccccc1 (centres undefined) | -13.4%
CC1=C[C@@H](CNC(=O)CC(C)(C)CC(=O)O)[C@H](C(C)C)C[C@H]1Cc1nc2ccncc2[nH]1 | 4.2%
O=C(c1ccc(Cl)nc1)N1CCC(N2CCCCCC2=O)CC1 | 8.9%[70.6 µM]
O=C(NCCc1noc(C2CC2)n1)C1(c2ccccc2)CC1 | 6.9%
COc1ccc(C(=O)N2CCC3(CC2)NC(=O)N(Cc2ccccc2)C3=O)c(C)c1 | -18.3%
N#Cc1ccc(CNC(=O)[C@@H]2Cc3nc[nH]c3CN2CC2CCCCC2)cc1 | 1.8%[70.6 µM]
Cc1cccc(N2CCN(C(=O)c3noc(-c4ccc5c(c4)OCO5)n3)CC2)c1 | -1.1%
O=C1NC2(CCCN(Cc3ccccc3C(F)(F)F)C2)COc2ccccc21 (centres undefined) | 16.2%
CCOc1ccccc1C(=O)N1CCC2(CC1)CN(C(C)=O)CC2COC (centres undefined) | -0.4%
CCOc1ncccc1C(=O)N[C@H](c1cncc(OC)c1)C1CC(O)C1 (some centres undefined) | 2.1%
CCn1ncc(CN2CC[C@@H]3C(=O)NCCCCCCN(Cc4ccncc4)[C@@H]3C2)c1C | -0.4%
CC(C)NC(=O)C[C@@H]1O[C@H](CNS(C)(=O)=O)[C@@H](O)[C@H]1O | -2.0%[70.6 µM]
CCCc1noc(-c2cn(C3CCN(C(=O)c4cc(F)cc(F)c4)CC3)nn2)n1 | -6.0%
N#Cc1cccc(NC(=O)N[C@H]2[C@H](O)[C@@H](Sc3ccccc3)[C@@H]3OC[C@H]2O3)c1 | 3.7%[70.6 µM]
Additional results.
SMILES | NPR1 antag
O=C(Nc1ccc(F)cc1)N1CCC(O)(c2csc(CN3CCN(c4ccccn4)CC3)n2)CC1 | ?
OC1(c2csc(CN3CCN(c4ccccn4)CC3)n2)CCNCC1 | -4.8%[70.6 µM]
Cn1cccc1C(=O)N[C@H]1C[C@@H](C(=O)O)N(C(=O)CSCC(=O)N2C[C@@H](NC(=O)c3cccn3C)C[C@H]2C(=O)O)C1 | -2.7%
CC(=O)Nc1cccc(-c2cc(-c3ccncc3)c3cncn3c2)c1 | -6.7%[70.6 µM]
Cc1cccc(C(C)(C)C)c1NC(=O)N1CCOC(C(F)(F)F)C1 (centres undefined) | -1.9%
O=C(NCc1ccccn1)C1CN(S(=O)(=O)c2cccnc2)CC12CCCCC2 (centres undefined) | 0.0%
O=C(CCc1ccccc1)N1C[C@H]2OC(=O)N(CCCN3CCOCC3)[C@H]2C1 | 0.0%
COc1ccc(C2Cn3nnc(-c4nc(-c5ccccc5Cl)no4)c3CO2)cc1 (centres undefined) | -19.7%

An excerpt; rates above refer to the full screens.
